Marburg entry inh – qHTS for inhibitors of binding or entry into cells for Marburg Virus. Marburg virus pseudotyped entry inhibition, cell reporter; control for the full effect not named in the record; about a third of the inactives were read at about 46 µM. Potency, µM (highest dose often 37.8 µM), for the others: at the highest dose activity change, negative = inhibition, hits mostly inhibitors. 300,000 compounds, 1.8% hits; active = well fitted inhibition curve with a large enough effect; inconclusive = small, poorly fitted or top-dose-only effect, or effect the other way; inactive = flat fitted curve, though single readings scatter; tested in HEK293 cells; about a fifth of its hits are not listed in these tables; note: % is set by controls: 0 for no effect and ±100 for the full control effect; luciferase read-out
Cruzain Triton – qHTS Assay for Promiscuous and Specific Inhibitors of Cruzain (with detergent); Cruzipain (Trypanosoma cruzi), P25779; purified cruzain, Z-FR-AMC fluorescence, 0.01% Triton; Potency, µM, for the others: max response, negative = inhibition, hits mostly inhibitors; 200,000 compounds, 0.43% hits; AID 1478, 2009; active = well fitted curve in the direction sought with a large enough effect; inconclusive = small, poorly fitted or top-dose-only effect, or another doubt; inactive = no such curve, though single readings can be large; an effect the other way counts as inactive or inconclusive;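 note: plate controls were neutral wells for no effect and buffer without enzyme for full effect; nearly all actives have a fitted effect of over 40% in size; top concentration of the series not given in the record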
Target sequence (P25779 123-467 limits assumed): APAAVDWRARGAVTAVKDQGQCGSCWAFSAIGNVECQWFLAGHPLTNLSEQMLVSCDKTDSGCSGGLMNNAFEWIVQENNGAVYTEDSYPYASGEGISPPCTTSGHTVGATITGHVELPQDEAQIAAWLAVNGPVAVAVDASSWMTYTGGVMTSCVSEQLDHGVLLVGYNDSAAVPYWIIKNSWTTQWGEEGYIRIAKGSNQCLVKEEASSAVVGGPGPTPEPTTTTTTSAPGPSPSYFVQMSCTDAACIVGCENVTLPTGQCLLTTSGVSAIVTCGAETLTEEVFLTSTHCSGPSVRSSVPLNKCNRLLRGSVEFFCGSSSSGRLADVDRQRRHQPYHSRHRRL
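Compounds were screened in titration against cruzain (1.5 nM) with 0.01% Triton X-100 to counter colloidal aggregation. Activity was the AMC fluorescence increase over 60 s after adding 2 uM Z-FR-AMC at pH 5.5.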
RE007 growth inh – qHTS Assay for Inhibitors of the HIV-1 protein Vpr | Potency, µM (highest dose often 92.2 µM), inactives show at the highest dose activity change, negative = less growth | S. pombe RE007 Vpr strain, BacTiter-Glo ATP luminescence, 24 h; control for the full effect not named in the record | 360,000 compounds, 0.21% hits | AID 651644, 2012; active = well fitted falling curve with a large enough effect; inconclusive = small, poorly fitted or top-dose-only effect; inactive = no such curve, though single readings can be large or run the other way;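 note: % is set by controls: 0 for no effect and ±100 for the full control effect; nearly all actives have a fitted effect of over 50% in size; the assay follows cell death caused by Vpr and the record does not say whether a fall means rescue or toxicity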
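Fission yeast RE007 carrying one integrated HIV-1 vpr copy, seeded at OD 0.01 in PMG+AL medium with 23 nL pinned compound. Grown 24 h at 30 degrees; viability read by BacTiter-Glo luminescence after 5 min.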
SARS PLpro yeast – qHTS of Yeast-based Assay for SARS-CoV PLP. S. cerevisiae expressing SARS-CoV PLpro, growth rescue; control for the full effect not named in the record. Potency, µM (doses to about 32.9 µM), inactives show top-dose activity, positive = growth rescue. 330,000 compounds, 0.19% hits; note: 0% is about no effect; nearly all actives have a fitted effect of over 55% in size; growth read by luminescence after 48 h
Cruzain inh noDet – qHTS Assay for Promiscuous and Specific Inhibitors of Cruzain (without detergent) | Potency, µM, for inactives: max response, negative = inhibition, hits mostly inhibitors | Cruzipain (Trypanosoma cruzi), P25779 | 200,000 compounds, 2.3% hits | purified cruzain, Z-FR-AMC fluorescence, no detergent; active = well fitted curve in the direction sought with a large enough effect; inconclusive = small, poorly fitted or top-dose-only effect, or another doubt; inactive = no such curve, though single readings can be large; an effect the other way counts as inactive or inconclusive;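 note: plate controls were enzyme without inhibitor for no effect and buffer without enzyme for full effect; nearly all actives have a fitted effect of over 40% in size; top concentration of the series not given in the record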
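Detergent-free condition (0.00005% Triton X-100) in acetate buffer pH 5.5 with DTT. 1.5 nM enzyme and compound were pre-mixed 15 min, then 2 uM Z-FR-AMC substrate added; reaction progress from fluorescence change between first and third reads (60 s).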
Lassa entry inh – qHTS for Inhibitors of binding or entry into cells for Lassa Virus; Potency, µM (top dose mostly 37.9 µM), without a hit: at the top dose activity change, negative = inhibition, usual class: inhibitors; Lassa virus pseudotype entry inhibition, cell reporter; control for the full effect not named in the record; 300,000 compounds, 1.2% hits; active means well fitted inhibition curve with a large enough effect; inconclusive means small, poorly fitted or top-dose-only effect, or effect the other way; inactive means flat fitted curve, though single readings scatter; tested in HEK293 cells; note: % is set by controls: 0 for no effect and ±100 for the full control effect; nearly all actives have a fitted effect of over 50% in size; luciferase read-out
StopGo reporter – High Throughput Screening for Foot and Mouth Disease Virus Antivirals; human cells with a luciferase reporter of 2A StopGo recoding; control for the full effect not named in the record; Potency, µM (top dose mostly 57.9 µM), inactives show at the highest dose signal change, negative = less light; 410,000 compounds, 1.2% hits; active = well fitted falling curve with a large enough effect; inconclusive = small, poorly fitted or top-dose-only effect; inactive = no such curve, though single readings can be large or run the other way; tested in HEK293T cells; note: % is set by controls: 0 for no effect and ±100 for the full control effect; nearly all actives have a fitted effect of over 45% in size; luciferase light after 4 h
NS1 function inh – qHTS Assay for Inhibitors of Influenza NS1 Protein Function; S. cerevisiae slowed by influenza A NS1, growth recovery by OD600; Potency, µM (top dose mostly 46.1 µM), for the others: at the top dose activity, positive = more growth; 270,000 compounds, 0.4% hits; AID 2326, 2010; note: actives are rising curves; nearly all actives have a fitted effect of over 50% in size
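Read-out: OD600 growth recovery of NS1-expressing budding yeast. Cells grown overnight at 30C in -URA glucose medium, washed, resuspended and diluted 1:100 in 2% galactose assay medium, pH 6.0. Same strain lacking NS1 served as positive control.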
An asterisk follows results filed as active; ? = inconclusive; nt = no result given; & = joins results of further samples; [ ] = remark or other dose. Unless noted, calls come from the whole dose curve; as a rule, active means well fitted rising curve with a large enough effect; inconclusive means small, poorly fitted or top-dose-only effect; inactive means no such curve, though single readings can be large or run the other way. Potency is the fitted concentration of half-maximal effect.

Molecule,Marburg entry inh,Cruzain Triton,RE007 growth inh,SARS PLpro yeast,Cruzain inh noDet,Lassa entry inh,StopGo reporter,NS1 function inh
O=C(O)C1=C[C@H](c2ccc(Br)cc2)C[C@H](OCCCCO)O1,nt,nt,8%,0%,nt,nt,-17%,-6%
Cc1ccsc1CN(C(=O)c1ccccc1)C1CCS(=O)(=O)C1 (stereo unspecified),-8%,nt,1%,-5%,nt,10%,-13%,9%
O=C(O)C1C2CCC(O2)C1C(=O)Nc1ccc(F)c(Cl)c1 (stereo unspecified),nt,nt,-1%,2%,nt,nt,6%,7%
COc1cccc(C(=O)OCC(=O)c2ccc(Br)s2)c1,-8%,nt,-29%,-5%,nt,-7%,7%,-11%
O=C(N/N=C/c1ccc(N2CCOCC2)cc1)c1ccc(O)cc1,nt,nt,-15%,0%,nt,nt,-4%,7%
Cc1cc(C(=O)Nc2ccc(N3CCCC3)c(Cl)c2)ccc1[N+](=O)[O-],?,-3.0%,-6%,1%,-21%,4%[46.1 µM],2%,6%
COc1ccccc1-n1cc(-c2ccccc2)[nH]c1=S,nt,nt,6%,1%,nt,nt,?,-7%
CN(C)S(=O)(=O)c1ccc(C(=O)NCC(=O)N/N=C/c2ccco2)cc1,12%,nt,4%,0%,nt,-8%,-18%,nt
Cc1nc(NC(=O)COC(=O)C2CC3CCCC(C2)C3=O)c(Cl)cc1Cl (stereo unspecified),?,nt,-3%,-4%,nt,6%,-20%,nt
CCOC(=O)CC(=O)CSc1nc(-c2ccccc2)cc(-c2ccc(Cl)cc2)c1C#N,?,1.2%,10%,0%,?,?,-10%,21%
CCOC(=O)CN1C(=O)C(O)(C2CCc3ccccc3C2=O)c2ccccc21 (stereo unspecified),?,1.9%,-8%,1%,5%,13%,0%,-15%
CCN(CC)c1ccc(/C=N/NS(=O)(=O)c2ccc(CNC(C)=O)cc2)cc1,-4%,-6.3%,-3%,27%,-4%,-8%,43%[activator],-2%
O=C(CSc1nnnn1-c1ccccc1)Nc1ccc(N2CCOCC2)c(Cl)c1,10%,7.3%,-1%,nt,1%,?,-17%,?
CCOc1ccc(C(=O)CCCC(=O)c2ccc(OCC)cc2)cc1,nt,nt,-17%,-1%,nt,nt,45%[activator],-9%
CC(C)(C)c1ccc(NC(=O)C2CCCN(c3cnccn3)C2)cc1 (stereo unspecified),-24%[46.1 µM],-9.1%,-29%,-31%,?,6%[46.1 µM],0%&0%,-10%
O=c1c(OC2OC(CO)C(O)C(O)C2O)c(-c2ccc(O)c(O)c2)oc2cc(O)cc(O)c12 (stereo unspecified),15µM*,-7.1%,-14%,nt,-3%,0%,-21%,14%
COc1ccccc1N1CCN(S(=O)(=O)c2c[nH]c(=O)[nH]c2=O)CC1,?,nt,3%,0%,nt,26%,10%,nt
CC(C)CNC(=O)NC1(C(F)(F)F)Oc2ccccc2O1,?,nt,9%,0%,nt,-16%,-4%,nt
O=C(NCc1cccnc1)c1ccc2c(c1)C(=O)N(Cc1ccccc1)C2=O,?,nt,13%,0%,nt,6%,?,-5%
CN(CC1CCCN(CCc2ccc(F)cc2)C1)C(=O)CCC(N)=O (stereo unspecified),nt,nt,3%,2%,nt,nt,-10%,-6%
O=C(Nc1ccc(Cl)c(Cl)c1)Nc1nnc(-c2ccncc2)s1,-1%&-1%,-3.8%,5%,-12%,1%,3%,-1%,11%
CCOC(=O)c1cnc2c(cnn2C)c1NCCCN(C)C,-42%,6.5%,-8%,8%,-8%,9%,-1%,-1%
CC(C)CCOc1ccc(Cn2c(=O)sc3ccccc32)cc1,7%[46.1 µM],-8.3%,nt,nt,-8%,-4%[46.1 µM],-2%,nt
COc1ccc(N(CC(=O)Nc2c(C)n(C)n(-c3ccccc3)c2=O)S(=O)(=O)c2ccc(F)cc2)cc1,1%,-0.1%,-10%,6%,2%,-13%,-15%,3%
O=C1CC(C(=O)N2CCCc3ccccc32)CN1c1ccc(Cl)cc1 (stereo unspecified),-20%[46.1 µM],nt,9%,-26%,nt,-2%[46.1 µM],-29%,-15%
CC(C)(C)c1cc(OC(=O)c2ccccc2F)ccc1O,?,nt,?,-3%,nt,12%,-3%,-6%
CC1CN(c2ncnc3c2oc2ccccc23)CC(C)O1 (stereo unspecified),2%,-9.1%,-10%,-2%,3%,1%,2%,-43%
O=C(Nn1cnnc1)c1cc2c(s1)CCCC2,26%,-6.7%,-8%,2%,-16%,22%,40%[activator],6%
O=C(O)c1cccc(Nc2nc(Nc3ccccc3)nc(N3CCCC3)n2)c1,0%[46.1 µM],nt,16%,-1%,nt,-17%,-7%,nt
COc1ccc(CC(NC(C)=O)C(=O)NC2CCN(c3nnnn3-c3ccccc3)CC2)cc1 (stereo unspecified),?,-3.4%,10%,-2%,-5%,1%,-21%,-7%
CC(C)Cn1cc(C(=O)N2CCC(C)CC2)c2c3ccccc3n(C)c2c1=O,?,nt,1%,-10%,nt,-21%[46.1 µM],-7%,nt
CCN(Cc1ccccc1)C(=O)C1CCN(Cc2sccc2C)CC1,3%,-1.7%,21%,-10%,-1%,-25%,-7%,-11%
C/C(=N\N=C(N)N)c1cccc(Cl)c1,-13%,nt,8%,1%,nt,-12%,-9%,7%
O=C(Nc1ccc2[nH]ncc2c1)c1ccccc1Br,?,nt,4%,2%,nt,?,?,-9%
CCOC(=O)c1csc(NC(=O)c2ccc(N3C(=O)CCC3=O)cc2)n1,3%[46.1 µM],nt,-2%,4%,nt,3%[46.1 µM],24%,nt
COc1ccc(S(=O)(=O)NC(C)C(=O)Nc2ccccc2C(F)(F)F)cc1 (stereo unspecified),-11%,0.6%,-14%,-2%,2%,-6%,0%,3%
COc1ccc(NC(=O)Cn2c([N+](=O)[O-])cnc2C)cc1Cl,?,nt,1%,0%,nt,27%,-2%,3%
CCc1nnc(NS(=O)(=O)c2ccc(NC(=S)NC(=O)c3ccc(OC)c(OC)c3)cc2)s1,9%,-11%,-9%,13%,10%,-2%,12%,24%
COC(=O)C1=NN(C(=O)c2ccccc2)C(O)(c2ccc([N+](=O)[O-])cc2)C1 (stereo unspecified),23%,nt,18%,-2%,nt,-6%,-7%,8%
COCC(=O)N(CCc1ccc(OC)cc1)Cc1nc2ccccc2c(=O)[nH]1,?,-2.2%,3%,1%,4%,26%,-1%,0%
Cn1c(=O)n(C)c2cc(NS(=O)(=O)c3ccc(Br)s3)ccc21,-29%[46.1 µM],nt,5%,0%,nt,1%[46.1 µM],13%,1%
N#C/C(C(=O)NCCc1ccccc1)=C1/N=C(NC(=O)c2cccs2)c2ccccc21,?,-6.2%,-12%,?,4µM*,?,0%,8%
O=C(NC(Cc1ccccc1)C(=O)O)/C(=C/c1ccco1)NC(=O)c1cccc(Br)c1 (stereo unspecified),?,-11%,nt,8%,11%,5%,-10%,-1%
O=C(Nc1ccc(S(=O)(=O)Nc2ncccn2)cc1)c1cccnc1,?,-2.2%,9%,2%,1%,9%,12%,1%
O=C(CCNS(=O)(=O)c1cccs1)N1CCc2ccccc2C1,-7%[46.1 µM],0.8%,3%,5%,-10%,3%,6%,-2%
CCOC(=O)C1CCCN(C(=O)Cn2ncn3c(cc4sc(CC)cc43)c2=O)C1 (stereo unspecified),8%[46.1 µM],-6.0%,nt,nt,-7%,nt,-25%,nt
O=C(N/N=C/c1c(F)cccc1Cl)c1cc(C2CC2)[nH]n1,nt,nt,20%,3%,nt,nt,0%,-7%
CC(C)CSc1nc(N)nc2c1ncn2C1OC(CO)C(O)C1O (stereo unspecified),8%[46.1 µM],nt,11%,nt,nt,26%[46.1 µM],33%[activator],nt
c1ccc(OCc2nn3c(C4CCCCC4)nnc3s2)cc1,6%&6%,6.8%,18%,-3%,-5%,4%,1%,-31%
N#CC1=C(N)C(C#N)(C#N)C(c2cccnc2)C2CCCC=C12 (stereo unspecified),nt,-2.7%,nt,-5%,?,nt,nt,5%
O=c1[nH]c(=S)[nH]c2scc(-c3ccc(Br)cc3)c12,2%,nt,6%,nt,nt,6%,0%,nt
COc1cccc(/C=N/NC(=O)CCCC(=O)NC2CCCCC2)c1,-7%,1.4%,9%,1%,-8%,-4%,-3%,-10%
O=C(O)/C=C/C(=O)NCCc1ccccc1,5%[46.1 µM],nt,-13%,0%,nt,4%[46.1 µM],-8%,nt
O=C(NC1CCCCC1)C1CC(=O)N(c2ccccc2)C1 (stereo unspecified),13%[46.1 µM],nt,7%,3%,nt,-6%[46.1 µM],8%,1%
CCOC(=O)c1nn(-c2ccccc2)c(C)c1C(C)=O,0%,9.4%,-9%,2%,-2%,-4%,-18%,-3%
O=C(N/N=C/C=C/c1ccc([N+](=O)[O-])cc1)C1COc2ccccc2O1 (stereo unspecified),-6%,-8.8%,?,-38%,?,?,-14%,10%

(cont.)
Molecule,Marburg entry inh,Cruzain Triton,RE007 growth inh,SARS PLpro yeast,Cruzain inh noDet,Lassa entry inh,StopGo reporter,NS1 function inh
CN1C(=O)c2ccccc2C(C(=O)O)C1c1cccc([N+](=O)[O-])c1 (stereo unspecified),3%[46.1 µM],nt,16%,-1%,nt,0%[46.1 µM],-12%,nt
Cc1cccc(C)c1NC(=O)Cn1nnc(C(=O)Nc2ccc(F)cc2F)c1N,nt,nt,-8%,1%,nt,nt,-9%,-2%
CC(CCc1ccccc1)NC(=O)c1ccco1 (stereo unspecified),7%,-1.5%,7%,-2%,-11%,-4%,21%,-12%
O=C(c1cnn(-c2cccc(F)c2)c1)c1ccccc1O,?,nt,-22%,-1%,nt,10%[46.1 µM],-3%,3%
Nc1ncc(Br)cc1S(=O)(=O)NCCC(=O)NC1CCCCC1,nt,nt,-2%,-1%,nt,nt,1%,5%
Cc1ccc(S(=O)(=O)N2CCCC(C(=O)NCc3ccco3)C2)cc1Cl (stereo unspecified),-5%,-5.2%,14%,4%,-6%,9%,-23%,9%
